Hedgehog inh = blocks Sonic Hedgehog signaling; Shh-LIGHT2 Gli-luciferase reporter, 30 h; inhibition, % (concentration not given with the values); 22,000 compounds, 2.1% hits;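 active means replicate mean of 65% or more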;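 further: pathway switched on by Shh-conditioned medium diluted 1 in 25 in low serum; 100 nL library stock added to about 40 µL; 0% = median of neutral wells and 100% = positive control level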
YB-1 expr inh = YB-1 expression inhibition; U2OS, qRT-PCR YB-1 vs CDIP delta delta Cp, 16 h; stronger effect = higher value; zero = DMSO, each unit about twofold; delta delta Cp (YB-1 minus CDIP) (test concentration not listed); 30,000 compounds, 0.37% hits; AID 434959;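 active means delta delta Cp rounded down to an integer at or above 3, about 3 SD of DMSO wells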;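 further: higher means less YB-1 transcript or more CDIP transcript relative to DMSO; stock transfer was 100 nL into about 100 µL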
MITF inh = MITF inhibition; AID 2240; inhibition, % (no concentration beside the values); TRPM1 promoter luciferase, luminescence, 24 h; 37,000 compounds, 0.28% hits;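 active means most replicates at 85% or more, or half of them and the mean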;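 further: human melanocyte line stably carrying TRPM1 promoter luciferase reporter; 0% = vehicle wells and 100% = a positive control; the first replicate is given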
PD-1 reversal = activators reversing PD-1 mediated T-cell inhibition; activation, % (no concentration beside the values); primary human CD4 T cells, PD-L1 beads, CellTiter-Glo 96 h; 29,000 tested, under 10 active;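 active means replicate mean of 50% or more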;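 further: 0% = median vehicle wells and 100% = positive control; 100 nL library stock added to about 50 µL; numbers are from one replicate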
* marks the source's active call; other numbers are inactive results. These rows are one share of the data (hit frequency here may not be typical).

`Cc1noc(C)c1S(=O)(=O)Nc1ccc2c(c1)C(=O)N([C@H](C)CO)C[C@H](C)[C@H](CN(C)C(=O)Nc1ccc(F)cc1)OCCCC[C@@H](C)O2` gave Hedgehog inh 24, YB-1 expr inh -0.36, MITF inh -9 and PD-1 reversal -1.8.
`N#Cc1ccccc1NC(=O)CN1CCC(C(N)=O)CC1` gave MITF inh -11 and PD-1 reversal -0.3.
Screening Cc1onc(-c2c(Cl)cccc2Cl)c1NC(=O)N1CCCC1=O returned Hedgehog inh -14, YB-1 expr inh -0.21, MITF inh 7 and PD-1 reversal -0.5.
For COC(=O)c1ccc(-n2nnnc2SCC(=O)Nc2ccccc2)cc1 the results were MITF inh -5 and PD-1 reversal 1.6.
CC(=O)Nc1c(C(=O)c2ccccc2)oc2ccccc12 was read as Hedgehog inh -20, YB-1 expr inh 0.14, MITF inh 4 and PD-1 reversal -0.4.
C[C@@H]1CCCCO[C@H](CN(C)C(=O)Nc2ccc(F)cc2)[C@@H](C)CN([C@H](C)CO)C(=O)c2cc(N(C)C)ccc2O1 was read as Hedgehog inh 6, YB-1 expr inh 0.027, MITF inh -28 and PD-1 reversal -0.4.
O=C(CSc1nnc(-c2ccco2)n1-c1ccccc1)N1CCc2ccccc21 was read as MITF inh 13 and PD-1 reversal 1.1.
`C[C@H](CO)N1C[C@H](C)[C@@H](CN(C)S(=O)(=O)c2ccccc2)Oc2c(NC(=O)NC3CCCCC3)cccc2C1=O` gave Hedgehog inh 14, YB-1 expr inh 0.003 and MITF inh 0.
For COc1ccc(CC(=O)Nc2cccc(C(=O)O)c2)cc1OC the results were MITF inh -32 and PD-1 reversal 1.0.
C[C@H]1CN([C@@H](C)CO)C(=O)Cc2cc(NC(=O)Nc3ccccc3)ccc2O[C@H]1CN(C)Cc1ccc(-c2ccccc2)cc1 was read as Hedgehog inh -32, YB-1 expr inh 1.1, MITF inh -17 and PD-1 reversal 1.9.
For C[C@@H]1CN([C@@H](C)CO)C(=O)c2cccc(NC(=O)CCCCCC(=O)Nc3ccccc3N)c2O[C@H]1CN(C)C the results were YB-1 expr inh -0.1, MITF inh 5 and PD-1 reversal -0.4.
`C=C(CO)C(=O)O[C@H]1CC(=C)[C@@H]2CC(=O)[C@H](C)[C@@H]2[C@H]2OC(=O)C(=C)[C@@H]21` gave Hedgehog inh 40, YB-1 expr inh -0.58, MITF inh 31 and PD-1 reversal -6.2.
CC(C)NC(=O)Nc1ccc2c(c1)C(=O)N([C@H](C)CO)C[C@H](C)[C@@H](CN(C)Cc1ccc(-c3ccccc3)cc1)O2 was read as Hedgehog inh 11, YB-1 expr inh 0.013, MITF inh 7 and PD-1 reversal -0.6.
For COc1ccc(OCCN2C(=O)CNC2=S)cc1 the results were Hedgehog inh -26, YB-1 expr inh 0.15, MITF inh 7 and PD-1 reversal -1.1.
`COc1cc(C2c3c(cc(OC)c(O)c3O)CC(CO)C2CO[C@@H]2O[C@H](C(=O)O)[C@@H](O)[C@H](O)[C@H]2O)cc(OC)c1O` (stereo partly drawn) gave Hedgehog inh -15, YB-1 expr inh 0.75, MITF inh -3 and PD-1 reversal 3.1.
Screening COc1ccc(S(=O)(=O)N(C)C[C@@H]2Oc3ccc(NS(=O)(=O)c4cccs4)cc3CC(=O)N([C@H](C)CO)C[C@@H]2C)cc1 returned Hedgehog inh 7, YB-1 expr inh -0.038, MITF inh -2 and PD-1 reversal 2.6.
Screening Cc1ccc(-c2cc(C(F)F)n3ncc(C(=O)NCCCN4CCOCC4)c3n2)cc1 returned MITF inh 11 and PD-1 reversal -6.1.
COc1cc(C(C)=O)ccc1O[C@@H]1O[C@H](CO)[C@@H](O)[C@H](O)[C@H]1O was read as Hedgehog inh -50, YB-1 expr inh -0.12, MITF inh -19 and PD-1 reversal 2.0.
C[C@H]1CN([C@@H](C)CO)C(=O)c2cc(NC(=O)Nc3ccccc3)ccc2O[C@@H]1CN(C)Cc1ccc(C(=O)O)cc1 was read as YB-1 expr inh 0.033, MITF inh -11 and PD-1 reversal 0.8.
Screening Cc1noc(C)c1S(=O)(=O)Nc1ccc2c(c1)C(=O)N([C@@H](C)CO)C[C@@H](C)[C@H](CN(C)Cc1ccccc1)O2 returned Hedgehog inh -5, YB-1 expr inh 0.19, MITF inh 4 and PD-1 reversal 1.8.

Part of the list above in order of SMILES length, falling:
C[C@H]1CN([C@@H](C)CO)C(=O)c2cc(NC(=O)Nc3ccccc3)ccc2O[C@@H]1CN(C)Cc1ccc(C(=O)O)cc1 was read as YB-1 expr inh 0.033, MITF inh -11 and PD-1 reversal 0.8.
For COC(=O)c1ccc(-n2nnnc2SCC(=O)Nc2ccccc2)cc1 the results were MITF inh -5 and PD-1 reversal 1.6.
Screening Cc1onc(-c2c(Cl)cccc2Cl)c1NC(=O)N1CCCC1=O returned Hedgehog inh -14, YB-1 expr inh -0.21, MITF inh 7 and PD-1 reversal -0.5.

New compounds follow.
Screening C[C@@H]1CN([C@@H](C)CO)C(=O)c2cccc(NC(=O)Nc3cccc4ccccc34)c2O[C@H]1CN(C)S(=O)(=O)c1ccc(Cl)cc1 returned Hedgehog inh -20, YB-1 expr inh -0.39, MITF inh 7 and PD-1 reversal -1.6.
`C[C@@H]1CN([C@H](C)CO)C(=O)c2cccc(NC(=O)Nc3ccc(C(F)(F)F)cc3)c2O[C@@H]1CN(C)S(=O)(=O)c1ccccc1` gave Hedgehog inh -37, YB-1 expr inh -0.64, MITF inh -10 and PD-1 reversal -2.6.
Cc1cc(N)n(-c2ccc(Oc3ccccc3)c(S(=O)(=O)O)c2)n1 was read as MITF inh -53 and PD-1 reversal 1.9.
CCn1c(N)c(C(N)=O)sc1=S was read as Hedgehog inh -22, YB-1 expr inh 0.39, MITF inh 14 and PD-1 reversal -0.2.
For CC(=O)Nc1[nH]c2c(c1C#N)CCCCC2 the results were Hedgehog inh 14, YB-1 expr inh -0.021, MITF inh -9 and PD-1 reversal -0.2.
C[C@@H]1CCCCO[C@@H](CN(C)C(=O)Nc2ccc(C(F)(F)F)cc2)[C@@H](C)CN([C@H](C)CO)C(=O)c2cc(N(C)C)ccc2O1 was read as Hedgehog inh 0, YB-1 expr inh 0.4 and MITF inh 9.
For COc1ccc(CN(C)C[C@@H]2Oc3ccc(NS(=O)(=O)c4ccc(Cl)cc4)cc3CC(=O)N([C@H](C)CO)C[C@H]2C)cc1 the results were Hedgehog inh -20, YB-1 expr inh 0.05 and MITF inh 25.
`Cc1noc(C)c1NC(=O)Nc1cccc2c1O[C@@H](CN(C)S(=O)(=O)c1ccc(F)cc1)[C@H](C)CN([C@@H](C)CO)C2=O` gave Hedgehog inh -1, YB-1 expr inh 0.043, MITF inh 1 and PD-1 reversal 2.1.
For C[C@@H]1CN([C@@H](C)CO)C(=O)c2cccc(NC(=O)C3CCCCC3)c2O[C@@H]1CN(C)C(=O)Nc1ccc(C(F)(F)F)cc1 the results were Hedgehog inh -20, YB-1 expr inh 0.062, MITF inh 14 and PD-1 reversal 0.6.
For C[C@@H]1CN([C@H](C)CO)C(=O)Cc2cc(NS(=O)(=O)c3cn(C)cn3)ccc2O[C@@H]1CN(C)Cc1ccc(Oc2ccccc2)cc1 the results were YB-1 expr inh -0.26, MITF inh -8 and PD-1 reversal -0.8.
Screening Cc1cccc(-c2nc3cc(NC(=O)COc4ccccc4)ccc3o2)c1 returned MITF inh -3 and PD-1 reversal -7.6.
Screening O=C(Cn1c(=O)n(-c2ccccc2)c(=O)c2cc(-c3ccccc3)sc21)c1cccs1 returned Hedgehog inh -31, YB-1 expr inh 0.18, MITF inh 7 and PD-1 reversal 0.4.
CC(C)(C)c1ccc(NC(=O)c2cnccn2)cc1 was read as Hedgehog inh -19, YB-1 expr inh -0.19, MITF inh 65 and PD-1 reversal -0.4.
Cc1ccc(NC(=O)CN(C)S(=O)(=O)c2ccc(F)cc2)c(C)c1 was read as MITF inh 1 and PD-1 reversal 1.4.
`COc1ccc(S(=O)(=O)Nc2ccc3c(c2)C(=O)N([C@@H](C)CO)C[C@@H](C)[C@@H](CN(C)C(=O)Nc2ccc4c(c2)OCO4)O3)cc1` gave Hedgehog inh -56, YB-1 expr inh 0.77, MITF inh 6 and PD-1 reversal -0.9.
Screening CCN1C(=O)c2cccc3c(S(=O)(=O)Nc4ccccc4)ccc1c23 returned YB-1 expr inh -0.15, MITF inh 24 and PD-1 reversal -1.1.
Screening Cc1ccc(S(=O)(=O)Nc2ccc3c(c2)CC(=O)N([C@H](C)CO)C[C@@H](C)[C@H](CN(C)CC2CC2)O3)cc1 returned Hedgehog inh -31, YB-1 expr inh 0.053 and MITF inh -7.
Screening CC(=O)CC(c1ccccc1)c1c(O)c2ccccc2oc1=O (stereo not drawn) returned Hedgehog inh -25, YB-1 expr inh -0.069 and MITF inh -1.
For CCOc1ccccc1OCC(=O)Nc1ccccc1[N+](=O)[O-] the results were MITF inh -16 and PD-1 reversal -1.4.
Screening CC(C)NC(=O)Nc1ccc2c(c1)C(=O)N([C@H](C)CO)C[C@H](C)[C@H](CN(C)Cc1ccc(Oc3ccccc3)cc1)O2 returned YB-1 expr inh -0.11 and MITF inh 22.
C[C@@H]1CN([C@@H](C)CO)C(=O)c2cc(NS(=O)(=O)c3ccc(F)cc3)ccc2O[C@H]1CN(C)S(=O)(=O)c1cn(C)cn1 was read as Hedgehog inh -40, YB-1 expr inh -0.23, MITF inh 5 and PD-1 reversal 0.1.
`C[C@@H]1CN([C@H](C)CO)C(=O)Cc2cc(NC(=O)Nc3ccc(F)cc3)ccc2O[C@H]1CN(C)C(=O)Nc1ccc2c(c1)OCO2` gave YB-1 expr inh -0.12, MITF inh -12 and PD-1 reversal -1.5.
COc1ccc(CN2C(=O)CC(Cc3ccc(C)cc3)C2=O)cc1OC (stereo not drawn) was read as Hedgehog inh 4, YB-1 expr inh -0.41, MITF inh -2 and PD-1 reversal 0.0.
For COc1ccc(S(=O)(=O)N(C)C[C@@H]2Oc3ccc(NC(=O)CCC(F)(F)F)cc3CC(=O)N([C@H](C)CO)C[C@H]2C)cc1 the results were Hedgehog inh -11, YB-1 expr inh -0.14 and MITF inh -6.
C=C1C[C@@]23CC[C@@H]4[C@](C)(C(=O)O)CCC[C@@]4(C)C2=CC[C@H]1C3 was read as Hedgehog inh -11, YB-1 expr inh 0.17, MITF inh -15 and PD-1 reversal -0.9.
CCn1c2ccccc2c2cc(NC(=O)CCCN3C(=O)c4ccccc4C3=O)ccc21 was read as MITF inh -9 and PD-1 reversal 4.4.
Cc1noc(C)c1S(=O)(=O)Nc1ccc2c(c1)C(=O)N([C@H](C)CO)C[C@@H](C)[C@H](CN(C)S(C)(=O)=O)O2 was read as Hedgehog inh -31, YB-1 expr inh -0.0023, MITF inh -3 and PD-1 reversal 0.1.
Screening CC(C)NC(=O)Nc1cccc2c1O[C@@H](CN(C)C(=O)Nc1ccc(C(F)(F)F)cc1)[C@H](C)CN([C@H](C)CO)C2=O returned Hedgehog inh 25, YB-1 expr inh -0.16, MITF inh -2 and PD-1 reversal 0.0.
`Cc1nn(CC(O)COc2ccc3ccccc3c2)c(C)c1Br` (stereo not drawn) gave MITF inh -24 and PD-1 reversal -2.1.
CC(=O)c1cccc(N(CC(=O)Nc2c(C)cccc2C)S(C)(=O)=O)c1 was read as MITF inh -16 and PD-1 reversal -2.1.

Brought forward from above: 2 compounds; new compounds follow.
`Cc1nn(CC(O)COc2ccc3ccccc3c2)c(C)c1Br` (stereo not drawn) gave MITF inh -24 and PD-1 reversal -2.1.
CC(=O)c1cccc(N(CC(=O)Nc2c(C)cccc2C)S(C)(=O)=O)c1 was read as MITF inh -16 and PD-1 reversal -2.1.
Screening COc1ccc(CN(C)C[C@H]2OCCCC[C@@H](C)Oc3ccc(NS(=O)(=O)c4ccc(C)cc4)cc3C(=O)N([C@H](C)CO)C[C@@H]2C)cc1 returned Hedgehog inh 65*, YB-1 expr inh -0.65 and MITF inh 1.
C[C@H]1CN([C@@H](C)CO)C(=O)c2cccc(NS(=O)(=O)c3cn(C)cn3)c2O[C@@H]1CN(C)C(=O)Nc1ccc(C(F)(F)F)cc1 was read as Hedgehog inh 9, YB-1 expr inh 0.022 and MITF inh 0.
For CCn1cc(C(=O)O)c(=O)c2cc(F)c(N3CCN(C(=O)c4ccc(F)cc4)CC3)cc21 the results were Hedgehog inh 1, YB-1 expr inh 0.49, MITF inh 9 and PD-1 reversal -0.7.
C[C@@H]1CN([C@@H](C)CO)C(=O)Cc2cc(NC(=O)Cn3cnnn3)ccc2O[C@@H]1CN(C)C(=O)Nc1ccc(F)cc1 was read as Hedgehog inh -7, YB-1 expr inh 0.066, MITF inh 8 and PD-1 reversal 3.0.
Screening C[C@@H]1CN([C@@H](C)CO)C(=O)c2cccc(NC(=O)C3CCCCC3)c2O[C@H]1CN(C)S(C)(=O)=O returned Hedgehog inh -7, YB-1 expr inh -1.1, MITF inh -7 and PD-1 reversal 2.0.
Screening CCC(C)C(=O)OC1CC(C)C=C2C=CC(C)C(CCC(O)CC(O)CC(=O)O)C21 (stereo not drawn) returned Hedgehog inh 43 and YB-1 expr inh -0.23.
